# Compound activity: PubChem, several laboratories
# PABP polyA inh = blocks human PABP binding to poly(A) RNA | fluorescence polarization | P11940 | 1% of 290,000 active | inhibition, % at 35 µM;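 active = 50% or more with normal probe brightness, or confirmed in later tests; inconclusive = above 50% with abnormal brightness, or retests that disagree; inactive = below 50% or failed in later tests; about a fifth of its hits are not listed in these tables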;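 note: calls also rest on retests at 20 µM and on dose response follow-up; controls were probe without protein and protein plus probe with vehicle; some compounds called inactive have numbers as strong as hits; many hits fall short of the cut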
# Target sequence (P11940 whole entry, looked up): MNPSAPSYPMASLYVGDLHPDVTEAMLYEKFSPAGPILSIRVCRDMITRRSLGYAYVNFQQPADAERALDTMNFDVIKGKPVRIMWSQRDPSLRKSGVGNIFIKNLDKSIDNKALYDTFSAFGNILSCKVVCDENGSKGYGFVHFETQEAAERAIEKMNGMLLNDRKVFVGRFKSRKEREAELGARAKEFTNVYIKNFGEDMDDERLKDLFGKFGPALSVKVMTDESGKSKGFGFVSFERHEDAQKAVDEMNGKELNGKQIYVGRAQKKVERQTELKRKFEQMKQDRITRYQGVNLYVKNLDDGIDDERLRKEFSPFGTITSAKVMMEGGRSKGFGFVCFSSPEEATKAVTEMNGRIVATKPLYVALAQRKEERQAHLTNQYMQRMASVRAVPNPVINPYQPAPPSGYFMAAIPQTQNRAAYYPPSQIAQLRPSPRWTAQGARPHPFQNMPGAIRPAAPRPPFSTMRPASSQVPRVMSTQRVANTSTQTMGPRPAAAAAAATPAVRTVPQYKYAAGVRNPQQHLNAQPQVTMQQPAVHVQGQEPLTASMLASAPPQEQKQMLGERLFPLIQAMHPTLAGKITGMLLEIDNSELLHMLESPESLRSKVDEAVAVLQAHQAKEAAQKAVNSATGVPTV
# CSC inhib = blocks cancer stem cells; 1.1% of 300,000 active; inhibition, % at 7.5 µM; cancer stem cell-like cells viability, luminescence;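 active = mean at 75% or more and at least half the replicates too; inconclusive = mean and replicates disagree; tested in HMLE shEcad cells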;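 note: 0% = median of negative and 100% = median of positive control wells; the first replicate is given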
# Rce1 inh = inhibitors of yeast Ras-converting enzyme | Q03530 | yeast membranes, quenched prenylated peptide cleavage fluorescence | calls only | 0.27% of 290,000 active | AID 2563;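 active = fall in fluorescence gain of 50% or more versus controls, with final raw signal at or below 3038400; inconclusive = same 50% fall but final raw signal above 3038400; inactive = fall in fluorescence gain under 50%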;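 note: plate controls were neutral control wells for no effect and wells lacking membranes for full effect; tested at 10 µM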
# HIV Env fusion = inhibitors of HIV Env-mediated cell fusion; AID 651610; HeLa-JRFL Env/CEM21 cell fusion, luciferase; 1.1% of 360,000 active; inhibition, % at 12.3 µM;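 active = mean replicate inhibition score of at least 50 and every replicate individually at or above 50; inconclusive = only one of the two criteria met; inactive = mean below 50 and not all replicates reaching 50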;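 note: 0% = plate neutral controls and 100% = maraviroc near 300 nM; one replicate is shown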
# eIF4H inh = inhibitors of RNA binding by human eIF4H; 0.94% of 290,000 active; eIF4H fluorescence polarization binding assay; inhibition, % at 35 µM;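 active = 50% or more with normal probe brightness, or confirmed in later tests; inconclusive = above 50% with abnormal brightness, or retests that disagree; inactive = below 50% or failed in later tests; about a fifth of its hits are not listed in these tables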;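 note: calls also rest on retests at 20 µM and on dose response follow-up; 0% = protein and probe with vehicle and 100% = probe without protein; strong numbers were not always called active; many hits fall short of the cut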
# MT1-MMP act inh = MT1-MMP (human) activation inhibition; P50281; HT1080 RFP-PRO-GFP cells, GFP/RFP ratio fluorescence, overnight; percent of plate control window, DMSO zero; GFP/RFP ratio change, % at 20 µM; 0.061% of 360,000 active; AID 651647;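 active = GFP/RFP ratio change of at least 30% with cell ATP level not reduced by more than half and red fluorescence within 50% of control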; note: strong numbers were not always called active
#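 Assay system – RFP-PRO-GFP reporter HT1080 cells · Compound dosing – single dose of 20 µM compound, 1% DMSO final · Incubation – overnight compound exposure at 37 °C · Measure – GFP/RFP fluorescence ratio · Benchmarks – DMSO wells and RFP-L50D-GFP cells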
# UUG fidelity = yeast start codon fidelity modulation | activity score, % at 18.7 µM | S. cerevisiae UUG-firefly luciferase reporter, luminescence/redox ratio | 0.13% of 350,000 active;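 active = replicate mean at a twofold rise or more, about +100% in these data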;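 note: firefly luciferase made from a UUG start codon reports start codon fidelity; reporter light over untreated wells divided by growth signal over untreated wells; some hits fall short of that in this replicate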
# eIF4H inh retest = recorded beside eIF4H inh, whose call it bears; inhibition, %; compound at 20 µM; confirmation average;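 mean of two retest wells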
# PABP polyA inh retest = second read-out of PABP polyA inh, no call of its own (marks repeat the call); inhibition, %; compound at 20 µM; confirmation repeats;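 mean of two retest wells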
# MT1-MMP act inh RFP = second read-out of MT1-MMP act inh, no call of its own (marks repeat the call); RFP signal change, %; measured here: RFP expression control read;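 0 = vehicle wells; hits needed this value within 50% of zero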
# * = called active by the depositor; i = inactive; ? = inconclusive; . = no result given.
SMILES,PABP polyA inh,CSC inhib,Rce1 inh,HIV Env fusion,eIF4H inh,MT1-MMP act inh,MT1-MMP act inh RFP,UUG fidelity,others
CC(=O)Nc1c(-c2ccccc2)nc2ncccn12,0,0,i,33,1,1,4,-29,
N#CCCN(Cc1cccnc1)C(=O)Nc1ccc(Cl)c(Cl)c1,6,-5,i,11,-5,2,0,-9,
CCn1c(NC(=O)C2CCCCC2)nc2ccccc21,13,7,i,.,-7,4,1,.,
CCOC(=O)c1c(NC(=O)c2ccco2)n(C2CCCCC2)c2nc3ccccc3nc12,24,8,i,.,50,-69,-17,.,
CCOC(=O)C(CC)(CC)C(=O)/C=C/c1ccc(Br)cc1,-7,.,i,.,-1,-16,-22,-2,
O=C(COC(=O)c1ccc(-c2ccc([N+](=O)[O-])cc2)o1)NC(=O)NC1CCCCC1,12,4,i,0,-9,3,-2,-12,
Cc1[nH]n(-c2ccc([N+](=O)[O-])cc2)c(=O)c1C=NCCc1ccc(S(N)(=O)=O)cc1,-3,.,i,-4,-10,0,0,-22,
O=C(NCc1ccco1)C(=O)NCC1OCCN1S(=O)(=O)c1ccc(Cl)cc1 (stereo not drawn),-2,-10,i,11,11,-6,3,18,
COc1ccccc1/C=N/NC(=O)c1ccc(C)nc1,0,-4,i,8,0,0,6,-9,
COC(=O)c1nc2n(n1)C(c1ccc(OC)c(OC)c1OC)C1=C(CCCC1=O)N2 (stereo not drawn),9,-2,i,.,3,7,9,0,
Cc1cc(=O)oc2cc(OC(C)C(=O)NCC3CCCO3)ccc12 (stereo not drawn),0,.,i,-14,0,0,5,1,
CC(C)(C)c1ccc(NC(=O)c2cc[n+]([O-])cc2)cc1,-8,-4,i,-7,-13,-1,-1,-10,
COc1ccccc1CN1CCNC(=O)C1CC(=O)NCc1c(C)n[nH]c1C (stereo not drawn),17,-8,i,0,7,0,6,.,
Cc1ccc(Cl)c(OC(=O)c2nn(C(C)C)c(=O)c3ccccc23)c1,5,0,i,11,-3,6,3,.,
CCc1ccc([C@@H]2C[C@H]3CN(Cc4ccccc4OC)C(=O)[C@]34CCCN24)cc1,2,-1,i,17,-8,-12,-3,-7,
O=C(O)c1c[nH]c2ccc(S(=O)(=O)N3CCOCC3)cc12,-4,-1,i,-46,-4,4,2,-14,
OC[C@H]1O[C@@H](n2cnc3c(NCc4ccco4)ncnc32)[C@H](O)[C@@H]1O,.,.,.,-6,.,3,-3,5,
O=C(CCN1C(=O)C2CCCCC2C1=O)N1CCN(S(=O)(=O)c2c(F)cccc2F)CC1 (stereo not drawn),.,-9,i,-6,.,2,-4,.,
CCC[C@@H]1C[C@@H](C(=O)N[C@@H](C2O[C@H](SC)[C@H](O)[C@@H](O)[C@H]2O)[C@H](C)Cl)N(C)C1 (stereo partly drawn),10,-7,i,.,0,4,5,-11,
COc1ccc(NC2CCCN(C(=O)CCCN3CCCCC3=O)C2)cc1 (stereo not drawn),-8,-1,i,7,-1,1,2,2,

# Molecules from the list above containing a nitro group on carbon, in the order listed:
SMILES,PABP polyA inh,CSC inhib,Rce1 inh,HIV Env fusion,eIF4H inh,MT1-MMP act inh,MT1-MMP act inh RFP,UUG fidelity,others
O=C(COC(=O)c1ccc(-c2ccc([N+](=O)[O-])cc2)o1)NC(=O)NC1CCCCC1,12,4,i,0,-9,3,-2,-12,
Cc1[nH]n(-c2ccc([N+](=O)[O-])cc2)c(=O)c1C=NCCc1ccc(S(N)(=O)=O)cc1,-3,.,i,-4,-10,0,0,-22,

# The listing continues:
SMILES,PABP polyA inh,CSC inhib,Rce1 inh,HIV Env fusion,eIF4H inh,MT1-MMP act inh,MT1-MMP act inh RFP,UUG fidelity,others
CC1(C)OC(=O)C(C(c2ccccc2)C(C#N)C(N)=O)=C(O)O1 (stereo not drawn),12,-11,i,?,-2,-5,2,.,
O=C(Cn1cc2c(n1)CCCC2)NCCc1ccccc1,-8,.,i,-20,-3,3,7,-11,
COc1ccc(-c2cn[nH]c2-c2ccc(O)cc2O)cc1OC,2,-10,i,6,-6,-1,-6,-15,
CC(CCc1ccccc1)NC(=O)C1CCN(C(=O)c2sccc2-n2cccc2)CC1 (stereo not drawn),33,2,i,-16,2,6,0,-2,
CCOC(=O)N1CCN(C2=Nc3cccc4cccc2c34)CC1,50,-5,.,.,59,-9,3,-8,eIF4H inh retest=28;PABP polyA inh retest=27
CCS(=O)(=O)N1CCN(C(=O)COc2ccc(-c3ccccc3)cc2)CC1,3,-8,i,10,-6,4,0,-10,
Cc1ccc(NC(=O)CCn2cccc2)cc1F,-1,15,i,-112,-1,6,-4,-15,
COc1cccc(C(=O)NC(=S)Nc2ccc(N3CCCC3)cc2)c1,-5,-9,i,.,-2,1,-6,-35,
Cc1ccc(-c2noc(CSc3nnc(-c4ccncc4)n3-c3ccc(F)cc3)n2)cc1,-10,.,i,63*,-11,-1,-7,.,
Cc1c(C(=O)N2CCOCC2)sc(NC(=O)c2ccccc2F)c1C#N,13,.,i,1,1,0,1,-7,
O=C(NCCS(=O)(=O)N1CCN(c2ccccc2)CC1)c1ccc2c(c1)OCO2,.,-17,i,13,.,0,3,-12,
CCC(C)[C@H](NC(=O)c1cc2cc(Cl)ccc2n1C)C(=O)N1CCC(C(=O)O)CC1 (stereo partly drawn),8,-8,i,-1,7,-3,-3,1,
C#CC(=O)N(c1cccc(OC)c1)C(C(=O)NC1CCCC1)c1cccs1 (stereo not drawn),0,6,i,.,0,-9,-33,-3,
O=C(CN1C2=NCCN2c2ccccc21)c1ccc(Br)s1,54,-12,i,-1,-6,-3,4,-10,eIF4H inh retest=6;PABP polyA inh retest=18
Nn1c(SCC(=O)Nc2ccc(N3CCOCC3)cc2)nnc1-c1ccccc1F,.,-8,.,-13,.,-5,1,-15,
CSCC[C@@H](C(=O)NCc1cccs1)N1Cc2ccccc2C1=O,2,17,i,-59,-8,-3,1,-9,
CC1OC(Oc2ccc3ccc(=O)oc3c2-c2c(O)ccc3cc(Oc4ccc5ccc(=O)oc5c4)c(=O)oc23)C(O)C(O)C1O (stereo not drawn),3,-4,i,-5,-1,-1,0,-3,
COc1cccc(N2CC(C(=O)Nc3nnc(SCC(=O)NCC4CCCO4)s3)CC2=O)c1 (stereo not drawn),1,-10,i,-5,-1,-4,2,-3,
O=C(NCc1ccc(F)cc1)c1ccc(CNc2c(N3CCOCC3)c(=O)c2=O)cc1,-3,-6,i,9,-3,1,4,-5,
COc1ccccc1OCC(=O)N/N=C1\CCc2ccccc21,-1,0,i,-96,-1,-1,0,-1,
CCSc1nnc(-c2cc(Br)ccc2N=Cc2c(C)[nH]n(-c3ccccc3)c2=O)c(=O)[nH]1,1,-1,i,9,0,0,1,.,
CCCC(=O)Nc1ccc(C(N)=O)cc1,23,14,i,1,-1,3,7,.,
O=C1NC(O)(c2ccccc2)Oc2ccccc21 (stereo not drawn),.,-9,i,-22,.,4,-7,-13,
COc1cccc(/C=C2\N=C(c3c(-c4ccccc4)noc3C)OC2=O)c1,1,-3,i,.,-6,6,5,-15,
COc1ccc2[nH]cc(CCn3ccc(=O)c(C)c3C)c2c1,15,-6,i,14,5,0,6,-11,
Cc1ccc(NC(=O)CN(C)c2ccc(S(=O)(=O)N3CCCC3)cn2)cc1,-4,10,i,12,-9,-4,3,-2,
CCOC(=O)c1nnn(-c2nonc2N)c1CNc1ccccc1,-3,-28,i,16,1,-3,-7,20,
Cc1cccc(NC(=O)N2CCCCCC2)c1C,4,1,i,-1,-1,1,4,-20,
O=C(Cc1ccccc1)NCCc1ccc(Cl)cc1Cl,-2,.,i,.,10,1,1,.,
Cn1c(=O)c2sccc2n2c(CCCC(=O)N3CCCCC3)nnc12,-6,-5,i,-11,0,1,5,7,
Cc1ccc(Cl)cc1NC(=O)C1CC(=O)Nc2ncnn21 (stereo not drawn),4,-2,i,-2,6,2,-1,-21,
COc1ccc(OC)c(C(=O)COC(=O)COc2ccccc2)c1,.,6,.,1,.,-4,-1,7,
CCc1nc2c(OCc3ccccc3)cccn2c1N(C)C(=O)COc1ccccc1,.,.,.,6,.,-4,-8,-10,
N#Cc1cccc(NC(=O)Cn2cnc(S(=O)(=O)N3CCCCC3)c2)c1,-2,-5,i,1,-5,5,3,-14,
CC(=O)c1ccc(S(=O)(=O)NCCC(=O)NC2CCN(Cc3ccccc3)CC2)cc1,.,-19,.,-35,.,1,3,-1,
Cc1cc(C)nc(Nc2n[nH]c(COc3ccc(Cl)cc3)n2)n1,-5,2,.,-36,-4,1,-6,-21,
CCOC(=O)CN(Cc1sccc1C)C(=O)Nc1cccc(OC)c1,-4,.,i,.,2,4,3,.,
O=C(CCS(=O)(=O)c1ccccc1)Nc1nc(-c2ccccn2)cs1,.,47,i,14,.,1,0,-27,
C(=NOCc1ccccc1)c1ccncc1,.,.,.,-22,.,1,3,-13,
CCOc1ccccc1OCCCC(=O)N1CCN(S(=O)(=O)c2ccc(Cl)cc2)CC1,.,-15,.,.,.,-2,-4,3,
Cc1ccc(OCC(O)CNS(=O)(=O)c2ccccc2C(=O)O)cc1 (stereo not drawn),3,-3,i,0,0,5,7,-14,
Cc1cc(C)n(C(=O)N(c2ccccc2)c2ccccc2)n1,0,-1,i,22,1,-3,3,-4,
COc1ccc(/C=N/NC(=O)c2ccoc2C)cc1OC,-2,-4,i,7,-1,2,3,.,
O=P(c1ccccc1)(c1ccccc1)c1ccc(O)cc1,8,-4,i,-14,0,0,0,-8,
O=C(COc1ccccc1Cl)NNC(=O)C1CCCO1 (stereo not drawn),-3,-5,i,.,6,3,2,.,
Cc1[nH]c2ccc(C(=O)NCCCN3CCCCCC3)cc2c1C,5,-4,i,-5,-6,-3,2,-19,
Cc1c(/C=C/C(=O)c2ccccc2)cnn1C,3,9,i,.,-6,2,0,-14,
COc1cccc(-c2cc(NC=O)c3ncc(-c4cccc(C(=O)N(C)C)c4)n3c2)c1,.,.,.,-10,.,-9,-3,-10,
Cc1cc(=O)n2[nH]c(-c3ccc(F)cc3)cc2n1,0,.,i,.,2,4,2,.,
COCCCn1c(C)nnc1SCC(=O)NNC(=O)COc1ccc(Cl)cc1,12,3,i,6,-3,5,3,-12,
O=C(OCc1cc(Cl)ccc1OC(F)F)c1cncc(Br)c1,0,-14,i,-3,2,-3,0,.,
COc1cc(C=NNC(=O)c2ccccc2NS(=O)(=O)c2cccs2)cc(OC)c1O,.,-15,.,-2,.,2,1,-24,
Cc1ccnc(NS(=O)(=O)c2ccc(NC(=O)CCOc3ccccc3)cc2)n1,-1,-1,i,51,-2,-1,-1,-17,
COc1ccc(-c2cc(C(=O)N3CCOCC3)no2)cc1,-1,6,i,-5,-3,-1,0,-53,
CC1(C)C(C#N)=C(N)OC2=C1C(=O)CCC2,-6,-3,i,.,-1,-1,-2,-5,
Cc1nnc2ccc(-c3cccc(NC(=O)c4ccc(Cl)nc4)c3)nn12,6,2,i,3,-3,10,2,.,
C#CCOCCOCCOCCNc1nc(N2CCN(C(=O)[C@H](Cc3cc4ccccc4[nH]3)n3cc([C@@H](N)C(C)CC)nn3)CC2)nc(N2CCN(C(=O)[C@H](CCCCN)n3cc([C@@H](N)CC(C)C)nn3)CC2)n1 (stereo partly drawn),8,-4,i,.,28,.,.,.,
CCOC(=O)C(N)CSC1CC(=O)N(c2ccc(C(=O)OC)cc2)C1=O (stereo not drawn),8,-7,i,.,-4,0,1,-5,
Cn1nccc1C(=O)N1CCN(C23CC4CC(CC(C4)C2)C3)CC1,-1,-4,i,-14,-11,-2,-2,-16,
